# Screens: PubChem BioAssay, National Center for Advancing Translational Sciences (NCATS)
# 2A StopGo: High Throughput Screening for Foot and Mouth Disease Virus Antivirals; human cells with a luciferase reporter of 2A StopGo recoding; control for the full effect not named in the record; Potency, µM (highest dose often 57.9 µM), for the others: at the highest dose signal change, negative = less light; 410,000 compounds, 1.2% hits; active = well fitted falling curve with a large enough effect; inconclusive = small, poorly fitted or top-dose-only effect; inactive = no such curve, though single readings can be large or run the other way; tested in HEK293T cells; note: % is set by controls: 0 for no effect and ±100 for the full control effect; nearly all actives have a fitted effect of over 45% in size; luciferase light after 4 h
# Cruzain noTriton: qHTS Assay for Promiscuous and Specific Inhibitors of Cruzain (without detergent); Cruzipain (Trypanosoma cruzi), P25779; purified cruzain, Z-FR-AMC fluorescence, no detergent; Potency, µM, without a hit: max response, negative = inhibition, hits mostly inhibitors; 200,000 compounds, 2.3% hits;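 note: plate controls were enzyme without inhibitor for no effect and buffer without enzyme for full effect; nearly all actives have a fitted effect of over 40% in size; top concentration of the series not given in the record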
# Target sequence (P25779 123-467 limits assumed): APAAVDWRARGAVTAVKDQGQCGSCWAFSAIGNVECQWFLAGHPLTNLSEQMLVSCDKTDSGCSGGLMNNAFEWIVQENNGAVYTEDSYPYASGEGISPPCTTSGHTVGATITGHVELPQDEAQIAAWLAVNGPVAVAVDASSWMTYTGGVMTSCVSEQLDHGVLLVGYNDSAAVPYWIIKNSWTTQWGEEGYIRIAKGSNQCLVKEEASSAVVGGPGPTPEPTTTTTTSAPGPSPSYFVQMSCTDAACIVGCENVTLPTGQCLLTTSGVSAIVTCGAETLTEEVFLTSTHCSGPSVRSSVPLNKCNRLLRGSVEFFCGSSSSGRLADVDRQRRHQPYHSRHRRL
#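 Detergent-free condition (0.00005% Triton X-100) in acetate buffer pH 5.5 with DTT. 1.5 nM enzyme and compound were pre-mixed 15 min, then 2 uM Z-FR-AMC substrate added; reaction progress from fluorescence change between first and third reads (60 s).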
# Cruzain Triton: qHTS Assay for Promiscuous and Specific Inhibitors of Cruzain (with detergent); Cruzipain (Trypanosoma cruzi), P25779; purified cruzain, Z-FR-AMC fluorescence, 0.01% Triton; Potency, µM, without a hit: max response, negative = inhibition, actives largely listed as inhibitors; 200,000 compounds, 0.43% hits;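 note: plate controls were neutral wells for no effect and buffer without enzyme for full effect; nearly all actives have a fitted effect of over 40% in size; top concentration of the series not given in the record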
#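 Compounds were screened in titration against cruzain (1.5 nM) with 0.01% Triton X-100 to counter colloidal aggregation. Activity was the AMC fluorescence increase over 60 s after adding 2 uM Z-FR-AMC at pH 5.5.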
# RE007 growth inh: qHTS Assay for Inhibitors of the HIV-1 protein Vpr | Potency, µM (top dose mostly 92.2 µM), inactives show at the highest dose activity change, negative = less growth | 360,000 compounds, 0.21% hits | S. pombe RE007 Vpr strain, BacTiter-Glo ATP luminescence, 24 h; control for the full effect not named in the record; active = well fitted falling curve with a large enough effect; inconclusive = small, poorly fitted or top-dose-only effect; inactive = no such curve, though single readings can be large or run the other way;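 note: % is set by controls: 0 for no effect and ±100 for the full control effect; nearly all actives have a fitted effect of over 50% in size; the assay follows cell death caused by Vpr and the record does not say whether a fall means rescue or toxicity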
#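 Fission yeast strain RE007, carrying one chromosomally integrated HIV-1 vpr copy, was seeded at OD 0.01 in PMG+AL medium with 23 nL pinned compound. After 24 h at 30 °C and 99% humidity, viability was read by BacTiter-Glo luminescence.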
# Marburg entry inh: qHTS for inhibitors of binding or entry into cells for Marburg Virus; 300,000 compounds, 1.8% hits; Marburg virus pseudotyped entry inhibition, cell reporter; control for the full effect not named in the record; about a third of the inactives were read at about 46 µM; AID 540276, 2011; Potency, µM (doses to about 37.8 µM), without a hit: at the top dose activity change, negative = inhibition, hits mostly inhibitors; active = well fitted inhibition curve with a large enough effect; inconclusive = small, poorly fitted or top-dose-only effect, or effect the other way; inactive = flat fitted curve, though single readings scatter; tested in HEK293 cells; about a fifth of its hits are not listed in these tables; note: % is set by controls: 0 for no effect and ±100 for the full control effect; luciferase read-out
# SARS PLP yeast: qHTS of Yeast-based Assay for SARS-CoV PLP; Potency, µM (titrated, usually from 32.9 µM), without a hit: at the highest dose activity, positive = growth rescue; S. cerevisiae expressing SARS-CoV PLpro, growth rescue; control for the full effect not named in the record; 330,000 compounds, 0.19% hits; AID 485353, 2010; active means well fitted rising curve with a large enough effect; inconclusive means small, poorly fitted or top-dose-only effect; inactive means no such curve, though single readings can be large or run the other way; note: 0% is about no effect; nearly all actives have a fitted effect of over 55% in size; growth read by luminescence after 48 h
# Lassa entry inh: qHTS for Inhibitors of binding or entry into cells for Lassa Virus; Lassa virus pseudotype entry inhibition, cell reporter; control for the full effect not named in the record; Potency, µM (series often up to 37.9 µM), inactives show top-dose activity change, negative = inhibition, most hits filed as inhibitors; 300,000 compounds, 1.2% hits; active means well fitted inhibition curve with a large enough effect; inconclusive means small, poorly fitted or top-dose-only effect, or effect the other way; inactive means flat fitted curve, though single readings scatter; tested in HEK293 cells; note: % is set by controls: 0 for no effect and ±100 for the full control effect; nearly all actives have a fitted effect of over 50% in size; luciferase read-out
# NS1 function inh: qHTS Assay for Inhibitors of Influenza NS1 Protein Function; S. cerevisiae slowed by influenza A NS1, growth recovery by OD600; Potency, µM (doses to about 46.1 µM), inactives show at the top dose activity, positive = more growth; 270,000 compounds, 0.4% hits; active means well fitted rising curve with a large enough effect; inconclusive means small, poorly fitted or top-dose-only effect; inactive means no such curve, though single readings can be large or run the other way; note: nearly all actives have a fitted effect of over 50% in size
#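 Recovery from NS1-induced slow growth read by OD600 in budding yeast switched to galactose assay medium (pH 6.0, -URA) at 1:100 dilution. Compound 23 nl per well; the matching strain lacking NS1 serves as control.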
# The depositor's hits bear a star; ? = inconclusive; / = no result given; & = joins results of further samples; ! = not active in a repeat; [ ] = remark or other dose. Unless noted, calls come from the whole dose curve; as a rule, active = well fitted curve in the direction sought with a large enough effect; inconclusive = small, poorly fitted or top-dose-only effect, or another doubt; inactive = no such curve, though single readings can be large; an effect the other way counts as inactive or inconclusive. Potency is the fitted concentration of half-maximal effect.
SMILES,2A StopGo,Cruzain noTriton,Cruzain Triton,RE007 growth inh,Marburg entry inh,SARS PLP yeast,Lassa entry inh,NS1 function inh
O=C(NNC(=O)C1CCCO1)c1ccc(F)cc1 (stereo unspecified),14%,0%,1.0%,-8%,4%,11%,?,-3%
O=c1oc(-c2ccco2)nc2sc3c(c12)CCCCC3,8%,/,/,3%,-19%,0%,-9%,-3%
CC(NC(=O)c1ccc(NC2=NC3CS(=O)(=O)CC3S2)cc1)c1ccccc1 (stereo unspecified),-17%,/,/,-17%,/,-6%,/,0%
O[C@H]1[C@H](O)[C@@H](O)CN2CC[C@H](O)[C@H]12,8%[146 µM],-8%&6%,-2.7%&2.7%,4%,-5%,6%,4%,8%
COC(=O)[C@H](CC(C)C)NC(=O)NCCCc1ccccc1,-15%,1%,-3.5%,-7%,6%,-12%,-8%,-23%
CCC1CCCCN1CCCNC(=O)C1CCCN(c2ncnc3c2nc2n3CCCCC2)C1 (stereo unspecified),-7%,/,/,-8%,?,7%,14%[46.1 µM],-13%
O=C(/C=C/c1cccs1)N1CCN(c2ccccc2F)CC1,19%,-6%,-5.9%,-12%,10%,-19%,12%,-11%
COC(=O)C1=C(C)NC(=O)/C1=C\c1cc(C)n(-c2c(C)cccc2C)c1C,/,3%,-13%,-10%,12µM*,-40%,?,-59%
CCCCCN(C(=O)NC(=O)Nc1ccc(C)cc1)S(=O)(=O)c1ccccc1,95%[activator],?,-5.8%,-5%,10%,3.2µM*,16%,-10%
Cc1cc(OCC(=O)NC2CCN(Cc3ccccc3)CC2)c2c(C)c(C)c(=O)oc2c1,-11%,/,/,7%,/,1%,/,-4%
COCCCn1c(=O)c2sccc2n(Cc2ccc(C)cc2)c1=O,-29%,/,/,5%,/,2%,/,-10%
OCCN1CCN(C(c2ccc(Cl)cc2Cl)c2sc3nc(-c4ccco4)nn3c2O)CC1 (stereo unspecified),-15%,0%,-5.2%,/,/,/,21%[46.1 µM],/
COc1cc(OC)cc(C(=O)NC(=S)N2CCCCCC2)c1,-7%,/,/,2%,?,0%,/,-8%
CCCCCn1c(=N)n(CC(O)COc2ccccc2OC)c2ccccc21 (stereo unspecified),?,0%,-2.7%,9%&6%,?,-26%&-2%,?,4%&3%
O=C(Nc1ccccc1)OCCOc1ccccc1,17%,-3%,2.4%,14%,10%,5%,8%,-15%
O=C(NC1CCCCCC1)C1CCC(CNS(=O)(=O)c2ccc(Br)s2)CC1 (stereo unspecified),-2%,?,-0.3%,-4%,-25%&22%,16%,-27%&1%,5%
CC(C)CCC1(CN2CCCC2=O)C(=O)NC(=O)NC1=O,4%,4%,-0.8%,-15%,15%,2%,11%,4%
COc1cc(C=O)ccc1OCc1ccc(Cl)nc1,5%,/,/,9%,?,0%,?,-6%
O=C(c1cnc(N2CCOCC2)c2ccccc12)N1CCN(c2ccccc2F)CC1,-2%,15%,-6.4%,/,/,/,-12%[46.1 µM],/
O=C(CN(CC1CCCO1)C(=O)CCC(=O)Nc1ccccn1)NCC1CCCO1 (stereo unspecified),-22%,-2%,0.1%,-5%,12%&12%,2%,2%,-4%
CC1CCCN(C(C(=O)Nc2ccc3c(c2)OCO3)c2ccccc2)C1 (stereo unspecified),18%,-3%,0.0%,-16%,/,-2%,/,-18%
C=C1C(=O)O[C@H]2C[C@]3(C)C([C@@H](OC(=O)/C(C)=C/C)[C@H]12)[C@](C)(O)CC[C@H]3O (stereo partly specified),-30%,/,/,10%,/,2%,/,8%
O=C(N/N=C/C=C\c1ccccc1)c1cnccn1,6%,/,/,-4%,21%[46.1 µM],0%,6%[46.1 µM],/
O=C(COc1cccc(NC(=O)c2cccc([N+](=O)[O-])c2)c1)c1ccc(F)cc1,?,?,-7.7%,-3%,?,2%,?,-3%
COc1ccc(N2CC(C(=O)N[C@@H](C)C(=O)NCc3ccccc3OC)CC2=O)cc1 (stereo partly specified),-4%,/,/,2%,/,-3%,/,9%
# (continued)
SMILES,2A StopGo,Cruzain noTriton,Cruzain Triton,RE007 growth inh,Marburg entry inh,SARS PLP yeast,Lassa entry inh,NS1 function inh
COc1cc2[nH]c(=O)n(-c3ccccc3)c(=O)c2cc1OC,15%,-7%,2.2%,7%,-20%[46.1 µM],2%,-1%,-6%
Cc1nnc(SCC2=C(C(=O)O)N3C(=O)C(NC(=O)c4cccc(F)c4F)C3SC2)s1 (stereo unspecified),-11%,/,/,14%,-2%,0%,/,/
O=C(NC(CO)Cc1ccc([N+](=O)[O-])cc1)C(Cl)Cl (stereo unspecified),1%,-10%,0.4%,-4%,5%[46.1 µM],0%,-1%,0%
COc1ccc(CNc2nc(-c3ccc(OC)c(OC)c3)cc(C(F)(F)F)n2)cc1,-8%,4%,-9.5%,/,-17%[46.1 µM],/,-11%[46.1 µM],/
CN1CCN(NC(=O)Nc2cccc(Cl)c2Cl)CC1,-12%,/,/,1%,?,-1%,13%,/
O=C(C1CCN(S(=O)(=O)c2ccccc2)CC1)N1CCc2ccccc21,-10%,/,/,0%,-5%,-4%,0%,14%
CCn1c(COc2ccc(=O)n(-c3ccccc3)n2)nnc1SCc1ccc(OC)cc1,-10%,1%,0.2%,-8%,?,-4%,2%,15%
CN(C(=O)Cn1cc(C#N)c2ccccc21)c1ccccc1,-24%,/,/,15%,-6%[46.1 µM],0%,10%,4%
Cn1ncc(Br)c1C(=O)Nc1ccc(Br)cn1,-15%,-24%,-2.7%,-20%,0%,-5%,9%,-2%
Cc1ccc(F)cc1NC(=S)NCCc1ccccc1,6%,8%,-1.6%,-2%,-16%,?,13%,-13%
Cc1ccc(NC(=O)c2ccco2)c([N+](=O)[O-])c1,0%,/,/,-24%,?,-3%,?,/
CCCCN(C)C(=O)Cn1ncc2c([nH]c3ccc(C)cc32)c1=O,-8%,0%,-1.0%,/,/,/,17%[46.1 µM],/
CCCCNc1nc(Oc2ccc(=O)n(C)n2)nc(N(C)C)n1,4%,1%,-1.7%,/,1%[46.1 µM],/,14%[46.1 µM],/
Cc1ccc(C(=O)NNC(=O)CSc2nnc3c(n2)[nH]c2ccc(C)cc23)cc1,/,?,2.5%,-18%,-13%,7%,-24%,9%
COc1ccccc1C1=NNC(=NCc2ccccc2)SC1,24%,/,/,24%,?,-6%,12%,/
Cc1ccc(S(=O)(=O)/C(C#N)=C/c2c(N3CCN(C)CC3)nc3c(C)cccn3c2=O)cc1,-6%,-3%,0.4%,3%,-3%&14%,3%,-1%,-2%
COc1ccc(C(=O)OCCN2CCN(C3=NS(=O)(=O)c4ccccc43)CC2)cc1OC,-21%,/,/,17%,-7%[46.1 µM],-2%,/,7%
Cc1ccc(Nc2nc(CSc3nnc(-c4cccnc4)n3-c3ccccc3C)cs2)cc1,-13%,?,-3.9%,0%,?,10%,?,?
COc1ccc(O)c(C2=Nc3ccccc3N=C(c3ccccc3)C2)c1,25µM*!,-25%,-4.7%,-6%,?,0%,16%,?
Nc1cc(=O)[nH]c(SCc2nnc(-c3ccccc3)o2)n1,26%,-9%,1.4%,2%,6%,11%,2%,-5%
CCN(CC)CCCNc1cc(C(F)(F)F)c(C#N)c2nc3ccccc3n12,-13%,/,/,-12%,?,-3%,-3%,12%
Cc1ccc(C(C(=O)NCc2ccco2)N(C(=O)Cn2nnc3ccccc32)c2ccccc2)o1 (stereo unspecified),12%,0%,1.7%,3%,2%&2%[46.1 µM],10%,?,-31%
CCOC(=O)CSc1nc2ccsc2c(=O)n1C1CCN(C(=O)OCC)CC1,7%,11%,0.6%,10%,?,-1%,-17%,-73%
CCOC(=O)N1CCN(S(=O)(=O)c2ccc(C(=O)NNc3nc4c(C)cccc4s3)cc2)CC1,?,-2%,-2.6%,1%,?,7.9µM*,?,10µM*
N#CCNC(=O)C1CC(=O)N(CCc2ccc(F)cc2)C1 (stereo unspecified),-12%,/,/,6%,-2%,3%,10%,15%
# Next part
SMILES,2A StopGo,Cruzain noTriton,Cruzain Triton,RE007 growth inh,Marburg entry inh,SARS PLP yeast,Lassa entry inh,NS1 function inh
CCCCCCn1c(=O)c(-c2nc3ccccc3c(=O)[nH]2)c(O)c2ccccc21,/,4%,2.1%,/,8%,3%,/,7%
CCc1ccc[n+](-c2[nH]c(=O)sc2/C=N/N=C(\[O-])CCn2c3ccccc3c3ccccc32)c1,4%,/,/,-2%,6%,0%,-9%,3%
CCN(C(=O)CSc1nnc(-c2cccc(F)c2)n1N)c1c(N)n(Cc2ccccc2)c(=O)[nH]c1=O,-1%,/,/,-8%,?,/,-6%,/
O=C(c1c[nH]c2ccccc12)N1CCN(Cc2ccccc2)CC1,-25%,/,/,3%,0%[46.1 µM],-1%,?,/
O=C1C2C3C=CC(O3)C2C(=O)N1N=C1CCCCC1 (stereo unspecified),-7%,/,/,10%,5%[46.1 µM],/,25%[46.1 µM],/
CCOC(=O)Cc1csc(NC(=O)c2cc(C)on2)n1,-3%,/,/,-6%,4%[46.1 µM],/,14%[46.1 µM],/
CN(C)CCCN(C(=O)c1ccc(C(=O)c2ccccc2)cc1)c1nc2ccc(F)cc2s1,?,/,/,6%,/,-9%,/,-1%
CN(Cc1cccc(F)c1)C(=O)c1ccc(S(=O)(=O)C(F)F)cc1,16%,-2%,-2.2%,-3%,3%,5%,20%,2.8µM*
O=C(CSCc1ccc(Cl)cc1)NCc1ccccn1,-21%,-1%,1.2%,3%,-12%,?,8%,22%

# In a second layout: entries from further up
SMILES	2A StopGo	Cruzain noTriton	Cruzain Triton	RE007 growth inh	Marburg entry inh	SARS PLP yeast	Lassa entry inh	NS1 function inh
CN(Cc1cccc(F)c1)C(=O)c1ccc(S(=O)(=O)C(F)F)cc1	16%	-2%	-2.2%	-3%	3%	5%	20%	2.8µM*
O=C(CSCc1ccc(Cl)cc1)NCc1ccccn1	-21%	-1%	1.2%	3%	-12%	?	8%	22%
